Screening results from PubChem.
LASV entry inh: inhibitors of Lassa virus binding or cell entry. Lassa virus pseudotype entry inhibition, cell reporter; control for the full effect not named in the record. Potency, µM (highest dose often 37.9 µM), without a hit: at the highest dose activity change, negative = inhibition, hits mostly inhibitors. hit rate 1.2% among 300,000. AID 540256; active means well fitted inhibition curve with a large enough effect; inconclusive means small, poorly fitted or top-dose-only effect, or effect the other way; inactive means flat fitted curve, though single readings scatter; tested in HEK293 cells; further: on the % scale 0 is the no-effect control and ±100 the full control effect; nearly all actives have a fitted effect of over 50% in size; luciferase read-out
RE007 growth inh: less growth of the S. pombe RE007 Vpr strain; S. pombe RE007 Vpr strain, BacTiter-Glo ATP luminescence, 24 h; control for the full effect not named in the record; hit rate 0.21% among 360,000; Potency, µM (highest dose often 92.2 µM), without a hit: at the top dose activity change, negative = less growth; AID 651644; active = well fitted falling curve with a large enough effect; inconclusive = small, poorly fitted or top-dose-only effect; inactive = no such curve, though single readings can be large or run the other way;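 further: on the % scale 0 is the no-effect control and ±100 the full control effect; nearly all actives have a fitted effect of over 50% in size; the assay follows cell death caused by Vpr and the record does not say whether a fall means rescue or toxicity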
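Fission yeast strain RE007, carrying one chromosomally integrated HIV-1 vpr copy, was seeded at OD 0.01 in PMG+AL medium with 23 nL pinned compound. After 24 h at 30 °C and 99% humidity, viability was read by BacTiter-Glo luminescence.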
Marburg entry inh: Marburg virus entry inhibition; Marburg virus pseudotyped entry inhibition, cell reporter; control for the full effect not named in the record; about a third of the inactives were read at about 46 µM; Potency, µM (titrated, usually from 37.8 µM), inactives show at the highest dose activity change, negative = inhibition, usual class: inhibitors; hit rate 1.8% among 300,000; active = well fitted inhibition curve with a large enough effect; inconclusive = small, poorly fitted or top-dose-only effect, or effect the other way; inactive = flat fitted curve, though single readings scatter; tested in HEK293 cells; about a fifth of its hits are not listed in these tables; further: on the % scale 0 is the no-effect control and ±100 the full control effect; luciferase read-out
NS1 function inh: blocks influenza NS1 protein function; S. cerevisiae slowed by influenza A NS1, growth recovery by OD600; Potency, µM (titrated, usually from 46.1 µM), inactives show at the highest dose activity, positive = more growth; hit rate 0.4% among 270,000; AID 2326; active means well fitted rising curve with a large enough effect; inconclusive means small, poorly fitted or top-dose-only effect; inactive means no such curve, though single readings can be large or run the other way; further: nearly all actives have a fitted effect of over 50% in size
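In this qHTS, NS1 from influenza A is expressed in budding yeast, where it slows growth. Cells are switched from glucose to 2% galactose medium (pH 6.0, -URA), treated with compound, and growth recovery is read at OD600.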
Cruzain noTriton: cruzain (T. cruzi) inhibition without detergent | P25779 | purified cruzain, Z-FR-AMC fluorescence, no detergent | Potency, µM, for inactives: max response, negative = inhibition, hits mostly inhibitors | hit rate 2.3% among 200,000 | AID 1476;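 further: plate controls were enzyme without inhibitor for no effect and buffer without enzyme for full effect; nearly all actives have a fitted effect of over 40% in size; top concentration of the series not given in the record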
Target sequence (P25779 123-467 limits assumed): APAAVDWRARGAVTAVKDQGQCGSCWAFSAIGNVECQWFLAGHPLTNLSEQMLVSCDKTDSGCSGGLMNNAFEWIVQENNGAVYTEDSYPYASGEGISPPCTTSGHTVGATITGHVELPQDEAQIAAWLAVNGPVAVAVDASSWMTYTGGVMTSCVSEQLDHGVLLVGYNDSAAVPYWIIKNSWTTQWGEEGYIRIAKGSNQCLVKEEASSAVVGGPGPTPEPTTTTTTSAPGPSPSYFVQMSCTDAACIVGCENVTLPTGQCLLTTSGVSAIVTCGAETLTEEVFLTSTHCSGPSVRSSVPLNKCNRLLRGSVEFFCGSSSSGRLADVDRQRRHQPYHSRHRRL
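Purified cruzain at 1.5 nM, pre-incubated 15 min with compound at room temperature in 100 mM sodium acetate pH 5.5, 5 mM DTT, 0.00005% Triton X-100. Reaction started with 2 uM Z-FR-AMC; AMC fluorescence increase over 60 s gives rate.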
SARS PLpro yeast: blocks SARS-CoV papain-like protease in a yeast assay | S. cerevisiae expressing SARS-CoV PLpro, growth rescue; control for the full effect not named in the record | Potency, µM (top dose mostly 32.9 µM), without a hit: at the top dose activity, positive = growth rescue | hit rate 0.19% among 330,000; active means well fitted rising curve with a large enough effect; inconclusive means small, poorly fitted or top-dose-only effect; inactive means no such curve, though single readings can be large or run the other way; further: 0% is about no effect; nearly all actives have a fitted effect of over 55% in size; growth read by luminescence after 48 h
Cruzain inh Det: blocks cruzain activity in presence of Triton detergent; purified cruzain, Z-FR-AMC fluorescence, 0.01% Triton; Potency, µM, inactives show max response, negative = inhibition, hits mostly inhibitors; hit rate 0.43% among 200,000; AID 1478;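 further: plate controls were neutral wells for no effect and buffer without enzyme for full effect; nearly all actives have a fitted effect of over 40% in size; top concentration of the series not given in the record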
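In this qHTS format, compounds are incubated with 1.5 nM cruzain for 15 min at room temperature before 2 uM Z-FR-AMC is added. Release of AMC is followed at 360/450 nm, and progress is taken as the 60 s fluorescence difference.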
2A StopGo: FMDV 2A StopGo reporter, luciferase signal; human cells with a luciferase reporter of 2A StopGo recoding; control for the full effect not named in the record; Potency, µM (highest dose often 57.9 µM), for inactives: at the top dose signal change, negative = less light; hit rate 1.2% among 410,000; active = well fitted falling curve with a large enough effect; inconclusive = small, poorly fitted or top-dose-only effect; inactive = no such curve, though single readings can be large or run the other way; tested in HEK293T cells; further: on the % scale 0 is the no-effect control and ±100 the full control effect; nearly all actives have a fitted effect of over 45% in size; luciferase light after 4 h
Active calls of the source: *; ? = inconclusive; · = not tested or not shown; & = joins results of further samples; [ ] = another dose, or the depositor's remark. Unless noted, the call rests on the fitted dose curve; in most records, active means well fitted curve in the direction sought with a large enough effect; inconclusive means small, poorly fitted or top-dose-only effect, or another doubt; inactive means no such curve, though single readings can be large; an effect the other way counts as inactive or inconclusive. Potency means the concentration at half of the fitted maximal effect. Compounds were not picked by outcome (roughly 4.7% active in at least one column).

structure	RE007 growth inh	SARS PLpro yeast	2A StopGo	Cruzain inh Det	Marburg entry inh	Cruzain noTriton	LASV entry inh	NS1 function inh
CC(C)CNS(=O)(=O)c1ccccc1C(=O)N1CCCCC1	1%	-1%	27%	5.4%	8%	-7%	6%	-10%
COc1cc(OC)cc(C(=O)NCCOC23CC4CC(CC(C4)C2)C3)c1	8%	0%	-31%	·	-2%[46.1 µM]	·	?	-10%
Cc1c(NC(=S)/C=C2\N(C)c3ccccc3C2(C)C)c(=O)n(-c2ccccc2)n1C	7%	2%	-4%	-2.5%	5%	-9%	3%	-12%
CCCCN1C(N)=NC[C@@H]1Cc1ccc(O)cc1	18%	-3%	-16%	·	·	·	·	7%
CN(Cc1ccccc1)c1nc2c(c(=O)[nH]c(=O)n2C)n1CCCc1ccccc1	5%	-6%	·	-4.7%	?	?	?	-49%
O=C(Nc1ccc2c(c1)C(=O)NC2=O)c1ccc(Cl)s1	-4%	2%	12%	·	·	·	·	0%
O=C(NC1CCCCC1)c1cc2ccccc2cc1O	?	-4%	-5%	·	-19%	·	2%	-8%
O=C(c1cccnc1)N1CCN(c2ccc(Cl)cc2)CC1	1%	-1%	-11%	-5.7%	3%	5%	-1%	-7%
CC(C)NS(=O)(=O)c1ccc(NC(=O)NC2CCCCC2)cc1	10%	6%	32%[activator]	-2.3%	?	-4%	?	6%
CCn1c(SCC(=O)N2CCOCC2)nc2ccccc21	3%	0%	-6%	·	13%[46.1 µM]	·	-8%	0%
O=C(CSCc1ccccc1)NCCCN1CCOCC1	6%	0%	28%	·	?	·	5%[46.1 µM]	1%
Cc1ccc(S(=O)(=O)/N=C(/Nc2ccc3[nH]c(=O)[nH]c3c2)c2ccccc2)cc1	0%	0%	14%	·	?	·	13%	-5%
CC(C)Cn1cc(C(=O)NCCCN2CCC(C)CC2)c2c3ccccc3n(C)c2c1=O	4%	·	15%	·	-2%[46.1 µM]	·	0%	·
COc1ccccc1CC(=O)Nc1ccc(F)cc1F	-11%	2%	2%	·	0%	·	15%	5%
COC(=O)c1cc(NC(=O)Cn2c(=O)cnc3ccccc32)cc(C(=O)OC)c1	-5%	-4%	-23%	1.7%	2%[46.1 µM]	15%	-1%	6%
Cc1ccc(NC(=O)c2cccnc2C(=O)O)nc1	4%	1%	18%	·	-3%[46.1 µM]	·	?	7%
COCC(=O)Nc1cc(OC)ccc1OC	14%	4%	-19%	-4.5%	·	-1%	-1%	5%
C=CCn1c(CSc2ccc(C)cc2)n[nH]c1=S	14%	11%	-2%	·	·	·	·	17%
O=C(Nc1ccc(Cc2ccc(NC(=O)N3CCOCC3)cc2)cc1)N1CCOCC1	-2%	2%	7%	-0.6%	4%&4%	7%	7%	-6%
Cc1cccc(C)c1-n1c(C)cc(/C=N\Nc2ccc([N+](=O)[O-])cn2)c1C	6%	-19%	-25%	-3.6%	-24%	16µM*	?	13µM*
CCOC(=O)Cn1c(=NC(=O)C2CC2)sc2c(C)cc(C)cc21	-16%	1%	-19%	·	·	·	·	-3%
CCCNC(=O)CN(C)C(=O)c1n[nH]c2ccccc12	7%	-4%	3%	1.6%	-17%	-2%	-12%	0%
CCOC(=O)C(Cc1ccc(NC(=O)/C(=C/c2ccccc2)NC(=O)c2ccccc2)cc1)N1C(=O)c2ccccc2C1=O (stereo not drawn)	-3%	8%	-24%	-2.7%	-25%	?	1%	16%
COc1ccc(-c2cc(C(=O)O)no2)cc1	?	-1%	-10%	0.2%	-17%&-17%[46.1 µM]	-10%	-4%	7%
CN(C)CCNC(=O)c1ccc(COCC(F)(F)F)cc1	2%	7%	·	0.1%	-3%	0%	3%	3%
Cn1nc(C(F)(F)F)c(-c2ccc(F)cc2)c1NC(=O)c1ccco1	-5%	3%	26%	·	?	·	5%[46.1 µM]	1%
CCNC(=O)NNC(=O)C1CC(c2cccnc2)=NO1 (stereo not drawn)	4%	1%	6%	·	3%[46.1 µM]	·	-3%	3%
CC(C)(C)C(=O)NC1CC2CCCC(C1)N2C(=O)Nc1ccccc1F (stereo not drawn)	5%	0%	-5%	·	2%	·	-1%	0%
COc1cc(NS(=O)(=O)c2ccc(OC)c(OC)c2)cc(OC)c1	12%	-4%	·	-1.8%	1%	4%	-13%	-2%
[O-][n+]1onc2c1CCc1[nH]c(-c3ccccc3)nc1-2	3%	0%	9%	·	10%	·	14%	5%
CN(C)c1ccc(C(CNS(=O)(=O)c2ccc(F)cc2)c2c[nH]c3ccccc23)cc1 (stereo not drawn)	-5%	-19%	-24%	-9.5%	-27%	32µM*	-9%	17%
Cc1ccc2[nH]c(=O)c3cc(C(=O)N(C)C4CCCCC4)sc3c2c1	8%	4%	-5%	·	2%[46.1 µM]	·	15%[46.1 µM]	15%
COc1ccccc1NS(=O)(=O)c1cccc(-n2c(O)c(C=Nc3ccccc3C(=O)O)c3ccccc3c2=O)c1	-8%	6%	3%	·	-13%[46.1 µM]	·	-17%	?
COc1cc(C(=O)Nc2cc(C)ccc2C)ccc1OCc1c(C)noc1C	8%	-4%	-14%	·	3%[46.1 µM]	·	13%[46.1 µM]	·
CC(C)(C)CC(=O)NCC(c1ccc2c(c1)OCO2)N1CCOCC1 (stereo not drawn)	·	·	-10%	0.5%	·	0%	-10%[46.1 µM]	·
O=C(CCc1ccccc1)N1CCN(c2ccc([N+](=O)[O-])cc2)CC1	11%	-4%	?	·	·	·	·	-1%
COc1ccc(-c2noc(CNC(=O)c3ccoc3C)n2)cc1OC	-2%	1%	-11%	·	-23%[46.1 µM]	·	-23%	-47%
CCOc1cc(N2CCOCC2)c(OCC)cc1NC(=O)COc1ccccc1[N+](=O)[O-]	-4%	-1%	-13%	·	-1%[46.1 µM]	·	-2%	·
CCOC(=O)N1CCN(c2c(NCc3cccs3)c(=O)c2=O)CC1	7%	0%	-8%	-5.5%	·	-2%	·	-4%
CS(=O)(=O)Nc1ccccc1C(=O)Nc1ccc2c(c1)OCCO2	-3%	-3%	15%	-1.0%	4%	-10%	1%	-9%
Cc1cc2n(n1)SC(Nc1ccc(F)c(Cl)c1)N2 (stereo not drawn)	-9%	-49%	53%[activator]	-6.2%	29%	-8%	18%	-9%
O=C(Nc1ccccn1)[C@@H]1CCC(=O)N1C(=O)OCc1ccccc1	9%	-4%	0%	1.5%	-1%	7%	1%	30%
Cc1ccc(NC(=O)CN2CCN(c3ccccn3)CC2)cc1S(=O)(=O)N(C)C	-9%	0%	19%	·	-7%	·	?	·
CN1CCc2c(OCC(=O)N3CCCc4ccccc43)cccc2C1=O	34%	1%	?	·	3.2µM*	·	?	1%
O=C(c1cc2nc(-c3ccc(F)cc3)cc(C(F)(F)F)n2n1)N1CCCCC1c1cccnc1 (stereo not drawn)	1%	-20%	18µM*	·	?	·	?	·
CCOc1cc(/C=C(\C#N)C(=O)Nc2ccc(OC)cc2)ccc1OCc1cc(=O)n2nc(CC)sc2n1	·	·	0%	0.8%	5%[46.1 µM]	-9%	0%[46.1 µM]	·
CCOC(=O)C1CCN(C(=O)c2cc3cc4ccc(C)cc4nc3o2)CC1	-3%	-7%	13%	·	·	·	·	-27%
Cc1c(C(=O)O)sc(S(=O)(=O)N2CCN(C(=O)Cc3ccc(Cl)cc3)CC2)c1C(=O)O	1%	·	-13%	·	4%	·	2%	·
CC(=O)N1CCOc2ccc(S(=O)(=O)N3C(C)CCCC3C)cc21 (stereo not drawn)	0%	3%	4%	·	·	·	·	-11%
c1ccc(-c2cc(N3CCCCC3)nc(-c3ccccc3)n2)cc1	5%	5%	-11%	-5.8%	2%	-16%	28%	9%
CCCCOc1ccc(C(=O)N/C(=C/C=C/c2ccccc2)C(=O)NCCO)cc1	1%	9%	-15%	-15%	-3%[46.1 µM]	?	-15%[46.1 µM]	9%
O=C(Nc1ccc(OCc2ccccc2)cc1)c1cccnc1	-1%	2%	·	-6.8%	5%	18%	16%	-8%
Cc1ccc(C(=O)Oc2ccc([N+](=O)[O-])cc2)cc1S(=O)(=O)N1CCCCCC1	3%	-3%	-6%	-3.5%	25%	5%	-5%	2%
CC(C)N(C(=O)CSc1nnc(Cc2ccc3c(c2)OCO3)n1C)C(C)C	14%	1%	9%	·	-3%[46.1 µM]	·	-8%[46.1 µM]	·
Cc1cccc(-c2nnc(SCCOc3ccc4c(C)cc(=O)oc4c3)o2)c1	11%	-6%	-16%	2.7%	-22%	?	-18%	-2%
O=S(=O)(c1ccc(F)cc1)N1CCN(c2ncccn2)CC1	4%	0%	-22%	·	·	·	·	-66%
CC(C)c1nc2sc3c(=O)n(N)cnc3c2c2c1COC(C)(C)C2	-8%	-8%	?	0.2%	5%	5%	5%	-1%
Cc1ccc(C2=NS(=O)(=O)N(C)C(C(=O)NC3CCCC3)=C2)cc1	10%	-1%	-25%	·	·	·	·	13%
Cc1nc(SCC(=O)NC(=O)NCc2ccco2)nc(C)c1C	34%	2%	-16%	·	5%	·	29%	·
O=c1[nH]cnc2c1c(-c1ccccc1)cn2-c1ccccc1	-4%	-12%	-12%	·	·	·	·	-12%
CC(C)OCCCNC(=O)Cc1ccc(NC(=O)N2CCCCc3ccccc32)cc1	·	·	0%	-4.0%	·	2%	-12%[46.1 µM]	·
